High-throughput results as filed in PubChem BioAssay.
VDR inh: inhibitors of human vitamin D receptor | AID 504847 | 400,000 tested, 0.93% active | P11473 | Potency, µM, for inactives: max response, negative = inhibition, actives largely listed as inhibitors | VDR-SRC2-3 peptide fluorescence polarization, 2 h; active = well fitted inhibition curve with a large enough effect; inconclusive = small, poorly fitted or top-dose-only effect, or another doubt; inactive = no such curve, though single readings can be large or run the other way; also: series mostly up to about 120 µM
Target sequence (P11473 whole entry, looked up): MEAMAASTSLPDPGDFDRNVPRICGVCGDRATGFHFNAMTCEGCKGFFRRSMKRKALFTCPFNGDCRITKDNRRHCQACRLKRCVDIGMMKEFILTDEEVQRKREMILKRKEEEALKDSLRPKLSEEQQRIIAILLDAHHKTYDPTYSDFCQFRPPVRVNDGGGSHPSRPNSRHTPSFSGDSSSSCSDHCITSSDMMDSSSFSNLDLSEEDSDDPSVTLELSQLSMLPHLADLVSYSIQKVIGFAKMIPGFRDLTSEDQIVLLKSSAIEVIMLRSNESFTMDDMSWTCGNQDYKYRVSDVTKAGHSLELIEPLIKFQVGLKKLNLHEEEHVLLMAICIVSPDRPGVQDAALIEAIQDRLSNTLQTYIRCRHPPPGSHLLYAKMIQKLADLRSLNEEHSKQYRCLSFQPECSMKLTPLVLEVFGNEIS
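Fluorescence polarization assay measuring small-molecule disruption of VDR binding to the coregulator peptide SRC2-3. Compounds were pin-transferred (23 nl) into the reagent mix and incubated 2 h at room temperature before reading.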
Numbers without * were called inactive; ? = inconclusive; & = joins results of further samples; [ ] = another dose, or the depositor's remark. % is scaled to controls: 0 for no effect and ±100 for the full control effect; potency is read from the fitted curve at half-maximal effect. Not all compounds are listed (hit frequency here may not be typical).

VDR inh | Structure
-5% | COc1ccc(Cl)cc1NC(=O)Cn1c(=O)n(-c2ccc(C)cc2)c(=O)c2ccc(C(=O)NCc3ccccc3Cl)cc21
-10% | CCOc1cc(C=O)ccc1OCCn1c([N+](=O)[O-])cnc1C
-4% | O=C(COc1ccc(-c2ccccc2)cc1)N/N=C/c1cccnc1
-1% | Cc1cc(NCCCN(C)C)n2c(nc3ccccc32)c1C#N
1% | O=C(c1ccc(CSc2ccc(Cl)cc2)cc1)N1CCOCC1
16% | Cc1ccc(NC(=O)CSc2nc3[nH]ncc3c(=O)[nH]2)c(C)c1
-10% | CCCCOC(=O)c1ccccc1N1C(=O)C2C3CCC(C3)C2C1=O (stereo not given)
-16% | Cc1cc(C)nc(SCCN2CCCCC2)n1
22µM* | OCCN1CCN(C(=S)c2ccc(Cl)c(Cl)c2)CC1
-11% | O=C(C1CCC1)N1CCc2cc(S(=O)(=O)NC3CCCc4ccccc43)ccc21 (stereo not given)
-10% | Nc1nc(Nc2ccccc2F)nc(N2CCCC2)c1[N+](=O)[O-]
-11% | CCC(C(=O)Nc1ccncc1)c1ccccc1 (stereo not given)
2% | COc1ccc(Nc2nc(C(=O)NCc3ccco3)cs2)cc1
-1% | Cn1c(NC(=O)c2ccc(S(=O)(=O)N3CCCCC3)cc2)cc(=O)n(C)c1=O
3% | COc1ccc(CCNc2nc(C)cc(=O)[nH]2)cc1OC
-15% | COc1ccc(OC)c(NC(=O)CCN2CCN(Cc3ccccc3)CC2)c1
1% | O=C(O)C(CCCCN1C(=O)c2ccccc2C1=O)N1C(=O)c2ccccc2C1=O (stereo not given)
-1% | CC(Nc1cccc(F)c1)C(=O)Nc1ccc(S(N)(=O)=O)cc1 (stereo not given)
-6% | CCOc1ccc(OCC(=O)OCC(=O)N2CCN(S(=O)(=O)c3ccc(C)cc3C)CC2)cc1
4% | COc1ccc(Br)cc1CN(C)C(=O)C1CC(=O)N(C2CCCC2)C1 (stereo not given)
-15% | C=CC[C@H](CC(=O)OC(C)(C)C)C(=O)OC[C@@H]1CCCN1C(=O)[C@@H](CC=C)CC(=O)N[C@H](CO)Cc1ccccc1
22% | CC(=O)NC(Cc1c[nH]c2ccccc12)C(=O)O (stereo not given)
-3% | COc1ccc(C2CCCN2C(=O)c2cccs2)cc1 (stereo not given)
-5% | CCOc1cc(C2C(C(=O)OC(C)C)=C(C)NC3=C2C(=O)CCC3)cc([N+](=O)[O-])c1O (stereo not given)
-4% | Fc1ccc2c(c1)C1OCCCC1C(c1ccccc1)N2 (stereo not given)
1% | O=C(Oc1cccc2cccnc12)c1cccc(-n2cnnn2)c1
-7% | Cc1cc(C)n2c(-c3ccccc3Cl)nnc2n1
79µM* | CC(C)c1ccc(S(=O)(=O)/N=C2\C=C(NS(=O)(=O)c3ccccc3)C(=O)c3ccccc32)cc1
-13% | O=C1CSC(c2ccccc2Br)N1c1ccc(Cl)cn1 (stereo not given)
-2% | O=S(Cc1ccccc1)Cc1ccccc1

Some of the entries above, reformatted.
smiles | VDR inh
Cc1ccc(NC(=O)CSc2nc3[nH]ncc3c(=O)[nH]2)c(C)c1 | 16%
CCCCOC(=O)c1ccccc1N1C(=O)C2C3CCC(C3)C2C1=O (stereo not given) | -10%
Cc1cc(C)nc(SCCN2CCCCC2)n1 | -16%
OCCN1CCN(C(=S)c2ccc(Cl)c(Cl)c2)CC1 | 22µM*
O=C(C1CCC1)N1CCc2cc(S(=O)(=O)NC3CCCc4ccccc43)ccc21 (stereo not given) | -11%
Nc1nc(Nc2ccccc2F)nc(N2CCCC2)c1[N+](=O)[O-] | -10%
CCC(C(=O)Nc1ccncc1)c1ccccc1 (stereo not given) | -11%
COc1ccc(Nc2nc(C(=O)NCc3ccco3)cs2)cc1 | 2%
Cn1c(NC(=O)c2ccc(S(=O)(=O)N3CCCCC3)cc2)cc(=O)n(C)c1=O | -1%
COc1ccc(CCNc2nc(C)cc(=O)[nH]2)cc1OC | 3%
COc1ccc(OC)c(NC(=O)CCN2CCN(Cc3ccccc3)CC2)c1 | -15%
O=C(O)C(CCCCN1C(=O)c2ccccc2C1=O)N1C(=O)c2ccccc2C1=O (stereo not given) | 1%
CC(Nc1cccc(F)c1)C(=O)Nc1ccc(S(N)(=O)=O)cc1 (stereo not given) | -1%
CCOc1ccc(OCC(=O)OCC(=O)N2CCN(S(=O)(=O)c3ccc(C)cc3C)CC2)cc1 | -6%
COc1ccc(Br)cc1CN(C)C(=O)C1CC(=O)N(C2CCCC2)C1 (stereo not given) | 4%
C=CC[C@H](CC(=O)OC(C)(C)C)C(=O)OC[C@@H]1CCCN1C(=O)[C@@H](CC=C)CC(=O)N[C@H](CO)Cc1ccccc1 | -15%

Going on with the list.
VDR inh | Structure
? | CCN(CC(F)(F)C(F)F)S(=O)(=O)c1ccc(NC(=O)OC)cc1
6% | CCOc1ccc(CCNC(=O)CCC(=O)N2CCOc3ccccc32)cc1OCC
-11% | CCOc1ccc(-c2c(C(=O)N/N=C/C3CCCCC3)nnn2-c2nonc2N)cc1
-12% | O=C(C1=C(O)C(=O)N(Cc2ccco2)C1c1cccs1)c1cccs1 (stereo not given)
? | O=C1NC(=O)/C(=C/c2ccc3c(c2)OC(F)(F)O3)S1
25% | CCOc1cccc2sc(=NC(=O)c3ccco3)n(CC(=O)OC)c12
17% | CCOC(=O)N1CCC(NC(=O)c2cc(S(=O)(=O)N3CCOCC3)ccc2F)CC1
3% | CC(=O)N1N=C(c2ccc(Br)cc2)OC12CCCC2
-12% | CC(C)C(NC(=O)c1ccc(C(C)(C)C)cc1)C(=O)NCc1ccccn1 (stereo not given)
-3% | Cn1c(SCc2nc3ccccc3n2CCO)nc2ccccc21
-3% | COc1ccccc1Cn1cc(C(=O)c2ccc(C)cc2)c(=O)c2cc(F)cc(F)c21
7% | CCOC(=O)c1ccccc1NC(=O)c1c(C)oc2ncnc(N3CCOCC3)c12
-9% | O=C(O)c1ccn(COc2ccc(Br)cc2)n1
-6% | Cc1ccc(CNC(=O)C(=O)NCC2OCCN2S(=O)(=O)c2cccs2)cc1 (stereo not given)
-10% | CC(C)n1c(C(=O)OCC(=O)NCc2ccc3c(c2)OCO3)cc2occc21
-7% | COc1ccc(CNC(=O)C2CC(C)=C(C)CC2C(=O)O)cc1OC (stereo not given)
-6%&-9% | Cc1ccc(-c2cc(N)n3nc(-c4ccc(C)cc4)cc3n2)cc1
-1% | COc1ccc(NS(=O)(=O)c2cccc(C(=O)NNC(=O)c3ccccc3OC)c2)cc1
-10% | N#Cc1c(-c2ccco2)nc(SCc2ccc(F)cc2)[nH]c1=O
-12% | COc1cc(C(=O)NCC(=O)N2CC=C(c3ccccc3)CC2)cc(OC)c1OC
-16% | COc1ccc(C(=O)Nc2ccccc2C(=O)Nc2cc(C)ccn2)cc1
15% | CCc1c(C)sc2c1CCN(Cc1ccccc1F)C2c1ccccc1 (stereo not given)
-8%&1%&7% | O=C(O)C1=CCNCC1
-2% | COc1cc(NC(=O)CC(C)S(=O)(=O)c2cc3c4c(c2)CCN4C(=O)CC3)cc(OC)c1 (stereo not given)
-19% | CCOc1cccc2sc(N(CCN(C)C)C(=O)/C=C/c3cccs3)nc12
9% | Cc1nn(Cc2ccccc2)c(C)c1C(=O)N1CCN(CC(=O)Nc2ccccc2Cl)CC1
9% | O=C(OCc1cn(-c2ccc(Cl)cc2)nn1)c1ccccc1
2% | CCn1c(CNC(=O)c2ccc(OC)cc2)nnc1SCC(=O)Nc1cc(C)ccc1C
-8% | CCC(C)[C@H](NC(=O)N1CCC(C)CC1)C(=O)OC (stereo not given in full)
-13% | c1cc2c(cc1C1=NNC(=NC3CC3)SC1)OCCO2

VDR inh | Structure
-13% | CC(CCc1ccccc1)NC(=O)CSc1cccc[n+]1[O-] (stereo not given)
-8% | CC(C)c1ccc(Nc2c([N+](=O)[O-])c(=O)n(C)c3ccccc23)cc1
1% | Cc1ccc(CNc2ccc(N3CCN(C)CC3=O)cc2)cc1
4% | Cc1nc(SC2C=CS(=O)(=O)C2)n[nH]1 (stereo not given)
-6% | Cc1c(C(=O)N2CCC(C)CC2)c(S(=O)(=O)N2CCN(c3ccc(Cl)cc3)CC2)c(C)n1C
4% | CCNC(=S)N/N=C/c1ccc(OCc2ccc(C(=O)OC)cc2)cc1
-13% | Fc1ccccc1CSc1nnc(-c2cnccn2)n1Cc1ccco1
-7% | CC(C)(C)c1cnnn1-c1ccc(NC(=O)c2ccc(Br)o2)cc1
5% | Cc1cc(C)cc(NC(=O)CSc2oc(-c3ccccc3)nc2S(=O)(=O)c2ccc(Cl)cc2)c1
4% | Nn1c(SCc2ccccc2F)nnc1-c1ccccn1
-11% | O=C(NC(=O)c1ccccc1F)Nc1nc(-c2cccs2)cc(C(F)(F)F)n1
51%[activator] | Cc1cccc(-c2nc(Nc3cccc(O)c3)c3ccccc3n2)c1
-3% | O=C(NCc1ccc2c(c1)OCO2)c1sccc1Br
4% | COCC(=O)Nc1nnc(SCC(=O)N2CCCCC2)s1
1% | Cn1c(=O)n(C)c2cc(NC(=O)CCc3ccccc3)c(Br)cc21
2% | O=c1c(-c2ccnn2-c2cccc(Cl)c2)cnc2n1CCS2
-14% | O=C(NCc1ccco1)c1ccc(Cl)s1
4% | Cc1cc(C(=O)N2CCN(Cc3ccccc3)CC2)on1
-1% | CCCN1C(=O)c2ccccc2NC1c1ccc(OC)cc1O (stereo not given)
22% | CCCCCn1c(=O)[nH]c2cc(C(=O)N3CCN(Cc4ccc5c(c4)OCO5)CC3)ccc2c1=O
-6% | O=c1[nH]c(/C=C/c2ccccc2Cl)nc2ccccc12
-3% | CCN1CCN(C(c2ccc(SC)cc2)c2c(O)cc(C)n(CCOC)c2=O)CC1 (stereo not given)
-2% | CN(c1ccccc1)S(=O)(=O)c1ccc(Cl)c(C(=O)OCC(=O)NC2CCS(=O)(=O)C2)c1 (stereo not given)
? | N#CC1=C2SCN(c3ccc(F)cc3)CN2C(=O)CC1c1cccc(F)c1 (stereo not given)
4% | COc1ccc([C@H]2CC(=O)C=C(c3ccc4c(c3)OCCO4)C2)cc1
-23% | Cn1c(SCC(=O)N/N=C/C=C\c2ccco2)nc2ccccc21
19% | O=C1c2[nH]nc(-c3ccccc3O)c2C(c2cccc(OCc3ccccc3)c2)N1CCCO (stereo not given)
10% | COc1cccc(NC(=O)C(=O)NCCc2csc(-c3ccc(C(F)(F)F)cc3)n2)c1
-3% | COC(=O)CSc1nccc(C)n1
-9% | CCOc1ccc(NC(=O)CN2C(=O)NC(C)(c3ccc(OC(F)F)cc3)C2=O)cc1 (stereo not given)

Exported as tab-separated lines: entries from further up.
SMILES	VDR inh
Cc1cc(C)cc(NC(=O)CSc2oc(-c3ccccc3)nc2S(=O)(=O)c2ccc(Cl)cc2)c1	5%
Nn1c(SCc2ccccc2F)nnc1-c1ccccn1	4%

The list goes on:
VDR inh | Structure
3% | COc1ccc(/C(O)=C2/C(=O)C(=O)N(CCCN3CCOCC3)C2c2ccc(C)cc2)cc1 (stereo not given)
3% | O=C(Cn1cnc2scc(-c3ccc(Br)cc3)c2c1=O)N1CCOCC1
-18% | Cc1oc2cc(O)ccc2c(=O)c1Oc1ccc(F)cc1
-12% | NS(=O)(=O)c1ccc2nc(-c3ccccc3)c(-c3ccccc3)nc2c1
-5% | C=CCn1c(SCc2ccc(F)cc2)nnc1-c1sc2nc(C)cc(C)c2c1N
-3% | O=S(=O)(c1cccs1)N1CCN(C/C=C/c2ccccc2)CC1
0% | O=C(/C=C/c1cccc(Br)c1)OCC(=O)N1CCN(c2ccccc2)CC1
-11% | CC(C(=O)Nc1ccc(C(N)=O)cc1)N1C(=O)c2ccccc2S1(=O)=O (stereo not given)
-2% | Cc1nn(C(C)C(=O)NNC(=S)Nc2ccc(Cl)cc2)c(C)c1[N+](=O)[O-] (stereo not given)
-14% | CC[C@H](CO)Oc1cc(NCc2ccc(Cl)c(Cl)c2)c2ncn(C(C)C)c2c1
0% | CC1Cc2ccccc2N1C(=O)CSc1nnc(CSc2ncccn2)n1C (stereo not given)
-19% | CCOC(=O)c1csc(NC(=O)CSc2nnc(C3CC3)n2C)n1
0% | Cc1ccc(CSc2nc(-c3ccccc3)c(C#N)c(=O)[nH]2)cc1
8% | Cn1cc(CN2CCCCC2CO)c(-c2ccc(Oc3ccccc3)cc2)n1 (stereo not given)
-5% | CCOC(=O)c1cccc(NC(=O)Cn2c(CC(=O)NC)nc3ccccc32)c1
12% | NC(=O)C1CCN(c2ccc(S(=O)(=O)N3CCC(Cc4ccccc4)CC3)cn2)CC1
5% | O=C(CNC(=O)Cc1ccccc1)NCC(=O)N1CCCCC1
-7% | Clc1ccc(-c2cc(CSc3ccccc3)on2)cc1
12% | CCN(CC)CC(=O)Nc1ccc2c(c1)Nc1ccccc1CC2
6% | Cc1ccc(S(=O)(=O)Nc2ccc3c(c2)C(=O)N([C@H](C)CO)C[C@H](C)[C@@H](CN(C)C(=O)Nc2ccc4c(c2)OCO4)O3)cc1
5% | Cc1nc(SCC(=O)c2ccc(Cl)cc2)c([N+](=O)[O-])[nH]1
-19% | Cc1cc(=O)oc2cc(OCC(=O)N3CCCC3)ccc12
3% | COc1cccc(OCCCCN2CC(C)OC(C)C2)c1 (stereo not given)
-6% | CCN(CC(=O)Nc1c(F)cccc1F)C(=O)CCN1C(=O)C2CCCCC2C1=O (stereo not given)
-15% | CC(C)CN1CC(C)C(=O)NC1=S (stereo not given)
-18% | CCOC(=O)C1CCCN(C(=O)c2ccc3c(=O)n(CCOC)c(=S)[nH]c3c2)C1 (stereo not given)
? | O=S(=O)(c1ccccc1)c1ncc(C(F)(F)F)cc1Cl
7% | Cc1cc(C)c(-c2c(O)c3cccnc3n(C)c2=O)c(C)c1
2% | O=C(Nc1sc2c(c1C(=O)O)CCC2)c1cccc(Cl)c1
-18% | CC1=C(C(=O)N2CCCCC2)C(c2ccc(Cl)cc2)n2c(nc3ccccc32)N1 (stereo not given)
-3% | COc1ccc(CCNC(=O)CCCN2C(=O)C(c3ccccc3)Oc3cccnc32)cc1OC (stereo not given)
12% | Cc1nc(SC(C(=O)c2ccccc2)c2ccccc2)n[nH]1 (stereo not given)
